RanGTP-Impb inh: inhibitors of RanGTP-importin-beta interaction, primary screen, biochemical, FRET, CFP-Ran, YFP-importin-beta, homogeneous; Ran GTPase (GTP-bound) - importin-beta complex; cell-free CFP-Ran/YFP-importin-beta FRET ratio; inhibition, % (no concentration beside the values); 1.1% of 300,000 active; AID 2216, 2009;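 active means most replicates above 15%; inconclusive means exactly half above 15%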;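 further: 0% = DMSO wells and 100% = Ran loaded with GDP instead of GTP; wells of about 40 µL received 100 nL stock; the first replicate is given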
Vif TR-FRET: inhibitors of Vif binding to APOBEC3G peptide, primary screen, biochemical, TR-FRET, GST-Vif 1-94, biotin-A3G peptide, dose response retest (AID 1117319) | Virion infectivity factor (Human immunodeficiency virus type 1 group M subtype B (isolate … | TR-FRET GST-Vif / biotin-A3G peptide binding; higher % means a stronger effect; test concentration not given here; strong numbers were not always called active | one-dose inhibition, %; IC50 in µM for titrated hits | 0.57% of 260,000 active;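 active means above the screen mean plus three standard deviations and confirmed in dose response; inconclusive means results disagree or hit not tested in dose response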;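 further: Vif residues 1-94 fused to GST binding biotinylated APOBEC3G peptide 110-148; 0% = full assay without inhibitor and 100% = GST in place of GST-Vif; retest series ran down from 100 µM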
Beta2AR agonist: beta2AR agonists driving receptor internalization, primary screen, cell-based, FAP fluorogen, flow cytometry; response, % (concentration not given with the values); Beta-2 adrenergic receptor (Homo sapiens), P07550; Am2.2-beta2AR cells; reference of the scale not given here; 0.43% of 340,000 active; AID 504454, 2011;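 active means response above a set limit, near 3 SD of response in nonfluorescent compounds, cut at about 42% in these data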;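 further: stock transfer was 100 nL into about 11 µL; a reference agonist was the positive control; negative values mostly stem from fluorescent compounds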
Target sequence (P07550 whole entry, looked up): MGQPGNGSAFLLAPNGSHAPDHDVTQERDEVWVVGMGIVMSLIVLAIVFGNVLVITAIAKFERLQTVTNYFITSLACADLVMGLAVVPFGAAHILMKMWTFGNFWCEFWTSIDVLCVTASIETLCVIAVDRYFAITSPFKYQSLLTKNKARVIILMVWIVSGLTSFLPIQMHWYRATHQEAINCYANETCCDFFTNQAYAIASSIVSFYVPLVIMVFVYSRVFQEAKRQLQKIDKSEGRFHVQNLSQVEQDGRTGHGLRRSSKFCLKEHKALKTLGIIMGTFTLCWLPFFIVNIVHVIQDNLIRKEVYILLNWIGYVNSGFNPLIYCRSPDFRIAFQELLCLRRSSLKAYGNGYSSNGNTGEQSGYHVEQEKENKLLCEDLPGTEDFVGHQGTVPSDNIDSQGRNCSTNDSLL
ALR inh: inhibitors of human ALR sulfhydryl oxidase, primary screen, biochemical, H2O2 detection, HRP-luminol luminescence, single point; FAD-linked sulfhydryl oxidase ALR (Homo sapiens), P55789; purified ALR, DTT oxidation; inhibition, % (concentration not given with the values); 3.8% of 290,000 active; AID 485317, 2010;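 active means mean and each replicate at 75% or more; inconclusive means only one of the two met; inactive means neither met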;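 further: stock transfer was 7.5 nL into about 7.5 µL; 0% = neutral wells and 100% = wells with inactivated enzyme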
Target sequence (P55789 whole entry, looked up): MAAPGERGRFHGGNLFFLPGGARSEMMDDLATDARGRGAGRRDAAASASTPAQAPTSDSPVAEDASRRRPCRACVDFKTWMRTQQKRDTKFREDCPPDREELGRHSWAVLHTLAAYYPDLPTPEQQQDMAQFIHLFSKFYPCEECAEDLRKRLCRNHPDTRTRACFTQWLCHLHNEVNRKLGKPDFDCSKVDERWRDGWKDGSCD
LANA-H2B inh: blockers of LANA interaction with H2A/H2B – biochemical, FP readout, HTS, primary screen | cell-free LANA-H2A/H2B peptide, fluorescence polarization | inhibition, % (concentration not given with the values) | 0.6% of 320,000 active | AID 2629, 2010; in the data active means inhibition mostly above about 10%, no sharp cut-off; inactive means mostly below about 6.7%;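 further: stock transfer was 7.5 nL into about 10 µL; 0% = median of vehicle wells and 100% = median of positive control wells; one replicate is shown; the record names a cut of 25% in any replicate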
HNF4A DNA FP: change in binding of human HNF4A to DNA, primary screen, biochemical, fluorescence polarization, FITC-DNA; AID 1224865, 2016; 0.3% of 360,000 active; Hepatocyte nuclear factor 4-alpha (Homo sapiens), P41235; 1 h; activity change, % at 10 µM; in the data active means activity change above about 30%, passing the limit was not always enough;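 further: controls were the assay level and a saturating level of protein; the project sought stronger binding though the title names inhibitors; some compounds called inactive have numbers as strong as hits; positive values seem to mean higher polarization but the record does not say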
Target sequence (P41235 whole entry, looked up): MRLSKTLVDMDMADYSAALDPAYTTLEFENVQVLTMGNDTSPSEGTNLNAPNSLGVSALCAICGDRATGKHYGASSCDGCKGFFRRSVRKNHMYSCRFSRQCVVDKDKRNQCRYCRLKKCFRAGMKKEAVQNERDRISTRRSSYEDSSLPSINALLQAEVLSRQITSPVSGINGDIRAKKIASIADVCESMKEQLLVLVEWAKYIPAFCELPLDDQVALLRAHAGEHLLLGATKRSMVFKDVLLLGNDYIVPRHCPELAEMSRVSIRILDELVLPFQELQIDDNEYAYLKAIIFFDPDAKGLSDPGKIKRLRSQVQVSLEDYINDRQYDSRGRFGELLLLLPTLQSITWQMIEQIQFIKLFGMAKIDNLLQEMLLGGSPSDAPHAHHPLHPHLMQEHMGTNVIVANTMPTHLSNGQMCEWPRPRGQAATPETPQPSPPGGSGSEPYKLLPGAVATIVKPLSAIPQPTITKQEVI
Calb FLC: C. albicans growth inhibition with fluconazole, primary screen, CaCi-2 strain, Alamar Blue fluorescence | C. albicans CaCi-2 (fluconazole-resistant clinical isolate) + fluconazole, 48 h | growth inhibition, % (test concentration not listed) | 0.57% of 300,000 active;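 active means most replicates above 75%; inconclusive means exactly half above 75%; inactive means most below 75%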;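 further: all wells also contain fluconazole at 8 µg/ml as a sub-toxic cotreatment; 0% = median of DMSO wells and 100% = median of geldanamycin control wells; wells of about 8 µL received 7.5 nL stock; the first replicate is given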
Active calls of the source: *; ? = inconclusive; / = no result given; & = joins results of further samples. Some of the compounds tested; rates above refer to the full screens.

Every second line gives: RanGTP-Impb inh, Vif TR-FRET, Beta2AR agonist, ALR inh, LANA-H2B inh, HNF4A DNA FP, Calb FLC
c1cncc(CNCCc2ccc3c(c2)OCO3)c1
    7.0, -5%, -2, -15, -0.8, 0.0, -3
COc1ccc(-c2nc3ccccc3c(=O)n2-c2cccnc2)cc1
    0.5, 8%, -8, 1, 3.9, -1.4, 12
O=P(OCC(F)(F)C(F)F)(N1CCCCC1)N1CCCCC1
    0.4, 1%, -1, -9, 1.7, 1.2, 11
Cc1ccsc1C(=O)C1CCCN(Cc2cc(C(C)C)n[nH]2)C1 (configuration not stated)
    -0.1, 23%, 0, 3, -1.6, -2.1, -17
Cc1ccc(-n2c(O)c(/C=N/NC(=O)c3ccncc3)c(=O)[nH]c2=O)cc1C
    -1.1, 15%, 2, 12, -4.8, 2.7, -25
S=C1CN=C(c2ccccc2)c2cc(Cl)ccc2N1
    4.5, 5%, 6, 10, 2.0, -0.4, -9
COc1ccc(-n2c(O)c(C(C)=NCCN3CCNCC3)c(=O)[nH]c2=O)cc1
    -0.3, -2%, -1, -3, 2.8, 2.1, 22
Nc1ccc(N2CCN(Cc3ccccc3Cl)CC2)c(Cl)c1
    2.2, 85µM*, 16, 89*, 11, 3.2, -12
CCOC(=O)CC1c2ccccc2-n2nncc2CN1Cc1ccc(OC)cc1 (configuration not stated)
    /, -3%, -2, /, /, -0.6, /
Cc1ccc2c(c1N)C(=O)c1ccccc1C2=O
    /, /, 21, -19, 1.2, 22, /
CCC1CN1P(=O)(c1ccccc1)N1CC1CC (configuration not stated)
    /, -2%, 4, /, /, 1.2, /
O=c1[nH]c(=O)n(Cc2ccc(F)cc2)c(O)c1C=Nc1ccc(Cl)cc1
    2.2, -1%, 2, -6, -4.2, 0.8, 0
C[n+]1ccc(-c2cc[n+](C)cc2)cc1
    /, /, 0, -29, -2.9, 1.5&-3.4, /
CCc1nc2ccc(Br)cc2c(=O)n1-c1ccccc1C(F)(F)F
    -0.9, /, -16, -1, 4.3, -2.1, 1
COc1ccc(C(=O)OC2C[C@H]3CC[C@H](C2)N3C)cc1OC (some centres not stated)
    /, /, -1, 0, -0.4, -3.5, /
CCC(=NCC1CCCO1)c1c(O)n(-c2ccccc2)c(=O)[nH]c1=O (configuration not stated)
    -1.1, 6%, 5, 0, 1.1, -0.8, 1
O=C([O-])c1ccc(-[n+]2c(-c3ccccc3)cc(-c3ccccc3)cc2-c2ccccc2)cc1
    1.7, /, 4, -31, -0.2, 1.0, -22
O=c1cccc2n1CC1CC2CN(Cc2cccc(Cl)c2Cl)C1 (configuration not stated)
    4.0, 22%, 14, -1, 7.6, 2.3, -7
Cc1ccc(S(=O)(=O)N(C)CCCC(=O)N2CCN(c3ccccn3)CC2)cc1
    0.0, 10%&-2%, -22, -5, 8.8, -0.5, 6
COc1cc(CNCCc2ccc3c(c2)OCO3)ccc1O
    0.6, -6%, 0, 32, -0.7, 5.0, -4
COc1cccc(CNCCc2c[nH]c3ccccc23)c1OC
    4.3, ?, 0, 46, -3.4, -1.7, -34
COc1cc2occc2c2oc(=O)ccc12
    2.2, -5%, 2, -2, 0.5, -1.1, 4
FC(F)(F)c1ccc2c(c1)ncn2C1CCN(Cc2nnnn2C2CCCCC2)CC1
    -3.5, -7%, -4, -39, -3.6, -0.1, -14
COC(=O)C1=C(c2ccc(OCc3ccccc3)cc2)C[C@@H]2CC[C@H]1N2C(=O)NCc1cccc(C(F)(F)F)c1
    /, /, 2, -4, 6.3, 1.7, /
O=C1NC(=S)N(c2ccc(F)cc2)C(=O)/C1=C/c1ccccc1O
    6.7, 2%, 7, 47, 3.3, 6.5, 0
COc1cccc2c1C(=O)c1c(O)c3c(c(O)c1C2=O)CC(O)(C(C)=NO)CC3OC1CC(N)C(O)C(C)O1 (configuration not stated)
    /, 3%, -74, /, /, -45, /
CSc1ccc(C(=O)C2CCCN(Cc3ccn[nH]3)C2)cc1 (configuration not stated)
    -1.6, 72%, 10, -2, -0.5, 0.5, -10
COc1cc2c(cc1OC)[C@@]13CCN4CC5=CCO[C@H]6CC(=O)N2[C@H]1[C@H]6[C@H]5C[C@H]43
    -0.8, 22%, 0, -14, 0.2, -3.2, -7
CC(C)Cn1cc(C(=O)N2CCC3(CC2)OCCO3)c2c3ccccc3n(C)c2c1=O
    -0.8, -1%, -2, -9, 2.0, -0.8, -6
N[C@@H](Cc1c[nH]c2ccccc12)c1nnc(SCc2ccc(F)cc2)o1
    8.3, -4%&3%, 3, /, /, -1.2, 12

Record cards, from the list above. Order of values: RanGTP-Impb inh, Vif TR-FRET, Beta2AR agonist, ALR inh, LANA-H2B inh, HNF4A DNA FP, Calb FLC
`COc1cccc2c1C(=O)c1c(O)c3c(c(O)c1C2=O)CC(O)(C(C)=NO)CC3OC1CC(N)C(O)C(C)O1` (configuration not stated) in the list: /, 3%, -74, /, /, -45, /
`CC(C)Cn1cc(C(=O)N2CCC3(CC2)OCCO3)c2c3ccccc3n(C)c2c1=O` in the list: -0.8, -1%, -2, -9, 2.0, -0.8, -6
`Cc1ccc(S(=O)(=O)N(C)CCCC(=O)N2CCN(c3ccccn3)CC2)cc1` in the list: 0.0, 10%&-2%, -22, -5, 8.8, -0.5, 6
`CSc1ccc(C(=O)C2CCCN(Cc3ccn[nH]3)C2)cc1` (configuration not stated) in the list: -1.6, 72%, 10, -2, -0.5, 0.5, -10
`COc1cccc(CNCCc2c[nH]c3ccccc23)c1OC` in the list: 4.3, ?, 0, 46, -3.4, -1.7, -34

The listing continues:
Every second line gives: RanGTP-Impb inh, Vif TR-FRET, Beta2AR agonist, ALR inh, LANA-H2B inh, HNF4A DNA FP, Calb FLC
N#CCCn1cc(C(=O)O)c(-c2cccc([N+](=O)[O-])c2)n1
    3.4, 23%, -3, 3, -3.5, 2.6, 9
O=C1NC(=O)N(CCc2ccc(F)cc2)C(=O)/C1=C/c1ccco1
    -4.6, /, 6, 54, -5.4, -17, 2
C[N+](C)(C)CC#CCN1CCCC1=O
    -4.5, /, 9, -30, 5.2, 1.2, /
Cc1ccc2c(c1)N(CCC(=O)N1CCC3(CC1)OCCO3)C(=O)C(C)O2 (configuration not stated)
    /, 3%, -8, /, /, -1.9, /
C/C(CC(c1ccccc1)c1c(O)c2ccccc2oc1=O)=N\NC(N)=S (configuration not stated)
    2.5, -4%, 2, 9, -0.2, -1.8, 4
Cc1ccccc1N1C(=O)CC(=O)N(c2ccccc2C)C1=O
    11, 30%, -4, 37, 0.6, 3.6, -2
CCn1c(O)c(/C=N/N2CCOCC2)c(=O)n(CC)c1=S
    -2.3, /, -8, 23, -7.9, 3.9, 6
Cc1cc2ccccc2c(=O)n1CC(=O)NCC(=O)N1CCC2(CC1)OCCO2
    2.5, /, 9, 2, -0.7, 1.0, -1
COC(=O)C1=CO[C@@H](C)[C@@H]2CN3CC[C@]4(C(=O)Nc5ccccc54)[C@@H]3C[C@H]12
    6.2, -8%, 4, -11, -4.5, -2.2, -4
CN1CC(C#N)C2(O)c3ccccc3CCC2C1 (configuration not stated)
    3.8, -3%, -17, -3, 1.0, 3.2, -2
CC1(c2ccc(Cl)cc2Cl)OCC(Cn2cncn2)O1 (configuration not stated)
    -3.7, 26%, -6, -4, -7.2, 0.1, 2
C=C1[C@@H](C)[C@H]2[C@H](Cc3ccccc3)NC(=O)[C@]23OC(=O)/C=C/[C@H](O)CCC[C@@H](C)C/C=C/[C@H]3[C@@H]1O
    1.1, -16%, 12, /, 5.4, 1.3, /
O=C(/C=C/C=C/c1ccccc1)CC1(O)C(=O)Nc2ccccc21 (configuration not stated)
    ?, /, 9, 8, 0.8, -3.5, -19
COc1ccc2c(c1)C13CCCC[C@@H]1C(C2)N(C)CC3 (some centres not stated)
    13, 25%, 3, 2, 1.1, -0.1, -12
C=CCn1c(C)c(C=C2C(=O)NC(=O)NC2=O)c2ccccc21
    0.9, /, 25, -3, -6.8, -2.0, -6
COC(=O)C1=C(c2ccc(F)cc2F)C[C@@H]2CC[C@H]1N2C(=O)NCCCOC(C)C
    /, /, 1, -5, 2.2, 2.7, /
Cc1c(C(=O)O)cccc1-n1c(C)cc(/C=C2\C(=O)NC(=O)N(c3ccc4c(c3)OCO4)C2=O)c1C
    5.5, ?, -1, 12, -0.6, -24, 4
Cc1cc(OCC(=O)N[C@@H](Cc2ccccc2)C(=O)O)c2c3c(c(=O)oc2c1)CCCC3
    1.9, /, -13, -13, -1.5, 3.2, -3
O=C(Cc1ccccc1)N1CCN(Cc2ccc([N+](=O)[O-])cc2)CC1
    0.8, 9%, 11, /, 10, 5.8, 2
COc1ccc(-n2c(O)c(/C(C)=N/N3CCCCCC3)c(=O)[nH]c2=O)cc1
    2.1, 3%, -24, 6, 10, 3.0, -3
CCC(=NCc1cccnc1)c1c(O)n(-c2ccc(Cl)cc2)c(=O)[nH]c1=O
    1.5, /, 0, /, -2.0, 1.1, -7
O=C1C(=Cc2ccccc2)N2CCC1CC2
    /, 0%, 0, /, /, 0.8, /
CC(Cc1ccccc1)[n+]1cc(/N=C(\[O-])N(C)C)on1 (configuration not stated)
    2.8, 3%, -3, 1, -2.8, 3.4, 0
COC(=O)c1cc(C(O)(C(=O)OC)C(F)(F)F)c(/N=C/N(C)C)s1 (configuration not stated)
    8.9, -1%, 5, /, -4.3, 2.1, -6
Cc1ccc(CN2CCCC(C(=O)c3ccc4c(c3)OCO4)C2)cc1C (configuration not stated)
    6.3, 7%, -5, -8, -1.3, 1.1, -10
COc1cc2ccc(=O)oc2c2ccoc12
    -0.2, -6%, 2, -18, -1.0, -1.7, -3
CCC(=NCCCO)c1c(O)n(-c2ccc(OC)cc2)c(=O)[nH]c1=O
    6.4, -3%, 0, -3, 0.2, 0.7, 5
COC(=O)C1=C(c2ccc(C(C)=O)cc2)C[C@@H]2CC[C@H]1N2C
    /, /, -4, 12, 5.1, 3.9, /
CC1=NNC(=O)C1Br (configuration not stated)
    /, 22%, 0, /, /, -0.3, /
CCC(C)NC(=O)c1c(N)n(CCCOC)c2nc3ccccc3nc12 (configuration not stated)
    112*, 3%, -5, 44, -2.2, -4.7, 9
Cc1ccc2c(c1)C1CN(C)CCC1N2C(=O)Cn1nnc(-c2ccccc2F)n1 (configuration not stated)
    ?, ?, 4, -5, -6.7, 0.5, -4
CC1=C(C(=O)O)N2C(=O)[C@@H](NC(=O)CCCC(=O)O)[C@H]2SC1
    1.0, 77%, 4, -1, -0.4, 0.5, 4
COC(=O)C1=C(c2ccc3ccccc3c2)C[C@@H]2CC[C@H]1N2C(=O)NC1CC1
    /, /, 6, -10, -0.3, 1.9, /
CCOc1ccc(N2C(=O)NC(=O)/C(=C/c3cnc(SC)nc3)C2=O)cc1
    0.5, /, -4, 3, 5.8, 8.0, -19
C=CCn1c(O)c(/C(C)=N/N2CCCCC2)c(=O)[nH]c1=O
    -4.0, -5%, -7, -1, 8.0, 1.6, -4
CC(=O)OC[C@]12CCC(C)=C[C@H]1O[C@@H]1[C@H](O)[C@@H](OC(C)=O)[C@@]2(C)[C@]12CO2
    /, /, 103*, -15, -2.8, 2.3, /
Cc1ccccc1C(=O)N1CC1C (configuration not stated)
    /, -1%, -8, /, /, 3.0, /
Cc1nc2ncnn2c(C)c1CCC(=O)N1CCC2(CC1)OCCO2
    1.3, -3%, -4, -1, 7.6, -0.2, 17
O=C1CCCC2=C1C(c1cccnc1)Nc1ccccc1N2 (configuration not stated)
    -5.9, 1%, -2, 24, 2.5, 1.6, 3

From PubChem
